Screens: PubChem BioAssay, National Center for Advancing Translational Sciences (NCATS)
GLA inh pH 4.5 – alpha-galactosidase A (human) inhibition, pH 4.5; P06280; 230,000 tested, under 10 active; purified enzyme, 4-MU-alpha-Gal fluorescence, pH 4.5; activity change, negative = inhibition, % at 105 µM; inconclusive = small, poorly fitted or top-dose-only inhibition, or a rising curve; inactive = flat fitted curve, though single readings scatter; no compound was filed as active;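 also: 0% = full activity with enzyme and -100% = basal without enzyme; dose as in the result columns while the protocol names 77 µM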
Rango dissoc inh – inhibitors of RanGTP-induced Rango-importin beta complex dissociation; O95149+P62826; Biochemical FRET Rango-importin beta, RanGTP-induced dissociation; Potency, µM (titrated, usually from 46.1 µM), inactives show at the highest dose activity change, negative = inhibition; hit rate 0.071% among 340,000; AID 540253; active means falling FRET ratio curve, often poorly fitted, with flat reads before Ran was added; inconclusive means other falling curves, or compound fluorescence or quenching; inactive means flat or rising ratio curve;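 also: potency is read from the fitted curve at half-maximal effect; % of control where 0% means no effect; nearly all actives have a fitted effect of over 45% in size; -100% = wells without RanGTP and RCC1; the record marks most hits as doubtful in a second field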
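Quantitative HTS using a FRET biosensor: 0.1 uM Rango, 0.25 uM importin beta, 0.6 uM Ran, 2 mM GTP, 0.2 uM RCC1 final, PBS with DTT, Tween-20 and BSA. Post-read taken 45 min after Ran addition.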
Rango-impB inh – Rango-importin beta binding inhibition; Rango CFP/YFP FRET sensor + importin beta, 45 min; hit rate 0.031% among 340,000; Q14974; Potency, µM (series often up to 92.2 µM), without a hit: at the highest dose inhibition of complex formation; active = rising FRET ratio curve, often small or poorly fitted; inconclusive = mostly compound fluorescence or quenching in the first reads; inactive = flat curves in all reads;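 also: potency is read from the fitted curve at half-maximal effect; 0% = DMSO wells and 100% = buffer wells lacking importin beta; nearly all actives have a fitted effect of over 15% in size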
Target sequence (Q14974 whole entry, looked up): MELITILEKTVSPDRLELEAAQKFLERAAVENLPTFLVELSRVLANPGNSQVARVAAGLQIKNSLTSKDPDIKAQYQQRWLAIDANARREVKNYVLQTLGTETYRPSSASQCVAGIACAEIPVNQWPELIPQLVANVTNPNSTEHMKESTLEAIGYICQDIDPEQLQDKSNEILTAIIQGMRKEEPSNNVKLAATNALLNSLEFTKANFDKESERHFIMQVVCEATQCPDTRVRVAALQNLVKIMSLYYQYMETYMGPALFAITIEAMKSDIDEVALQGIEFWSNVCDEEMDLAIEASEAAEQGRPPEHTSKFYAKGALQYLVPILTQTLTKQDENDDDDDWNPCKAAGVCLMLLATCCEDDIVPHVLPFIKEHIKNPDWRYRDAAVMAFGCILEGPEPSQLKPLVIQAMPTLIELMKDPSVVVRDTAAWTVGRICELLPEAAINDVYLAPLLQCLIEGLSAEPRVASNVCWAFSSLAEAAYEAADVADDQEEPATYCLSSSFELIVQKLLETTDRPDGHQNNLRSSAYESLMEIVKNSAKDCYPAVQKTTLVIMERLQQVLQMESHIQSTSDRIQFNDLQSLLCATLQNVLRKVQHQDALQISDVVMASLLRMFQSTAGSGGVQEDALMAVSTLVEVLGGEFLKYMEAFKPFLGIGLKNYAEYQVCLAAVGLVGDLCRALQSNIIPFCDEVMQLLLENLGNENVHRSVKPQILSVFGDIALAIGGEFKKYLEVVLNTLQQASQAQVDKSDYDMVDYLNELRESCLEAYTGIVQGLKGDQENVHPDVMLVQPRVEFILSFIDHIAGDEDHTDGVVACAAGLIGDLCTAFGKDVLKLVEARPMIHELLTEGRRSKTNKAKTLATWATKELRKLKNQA
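FRET biosensor Rango (snurportin 1 IBB between N-terminal EYFP and C-terminal Cerulean), 50 nM in PBS/1 mM DTT/0.02% Tween-20/0.1% BSA, preincubated 5 min RT with compound; 0.125 microM importin beta added, 45 min RT, CFP/YFP FRET ratio read.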
miR-21 FLuc – raises the signal of a miR-21 reporter; Potency, µM (series often up to 38.3 µM), for the others: at the top dose reporter change, positive = more light; AID 2288; 340,000 tested, under 10 active; HeLa miR-21 FLuc reporter, luciferase, 48 h; active = well fitted rising curve with a large enough effect; inconclusive = small, poorly fitted or top-dose-only effect; inactive = no such curve, though single readings can be large or run the other way;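 also: % of control where 0% means no effect; miR-21 action dims this reporter so a rising signal means less miR-21 action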
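Compounds were titrated across several concentrations (up to approximately 40 uM) and incubated 48 hours with HeLa miR-21-FLuc reporter cells (miR-21 target sequence downstream of FLuc, endogenous miR-21). Readout was firefly luciferase luminescence after lytic detection reagent.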
* hit, by the source's call; ? = inconclusive; . = no result given; & = joins results of further samples; [ ] = dose if it differs, or a comment. Not all compounds are listed; count on the stated rates, not on these rows.

molecule,GLA inh pH 4.5,Rango dissoc inh,Rango-impB inh,miR-21 FLuc
CCOC(=O)c1[nH]c2ccc(OC)cc2c1NC(=O)c1cccc(OC)c1,-10.6,-0.3%,5.0%,-0.5%
Cc1ccc(S(=O)(=O)NCCC(=O)N2CCN(c3ccccc3)CC2)cc1C,.,0.7%,0.3%,.
O=C(NNc1ccccc1)c1ccc(Cl)c(Cl)c1,.,-3.0%,-0.7%,.
Cc1ccnc(SCC(=O)Nc2c(C)n(C)n(-c3ccccc3)c2=O)n1,8.3,3.8%,-4.0%,2.5%
O=C(CCN1N=C(c2ccccc2)CCC1=O)NCC1CCCO1 (centres undefined),.,-5.2%,-0.4%,-0.4%
CN(Cc1ccccc1)c1ncnc2c1cnn2-c1ccccc1,-2.6,10.4%,-0.4%,-41.2%
CCN1CCN(c2ccc([N+](=O)[O-])c(Sc3nc4ccccc4[nH]3)c2)CC1,5.1,5.3%,?,1.4%
CCOC(=O)C(C)N1N=C(/C=C/c2ccc(OC)cc2)CCC1=O (centres undefined),-13.5,-6.7%,-1.4%,-2.2%
COc1cccc(N(C(=O)Cn2nnc(-c3ccc(C)cc3)n2)C(C(=O)NC(C)(C)C)c2c[nH]c3ccccc23)c1 (centres undefined),7.3,14.0%,-1.9%,7.0%
Cc1cc(C)c2c(n1)nn1c(N3CCN(c4ccccn4)CC3)cc(C)nc21,0.4,.,.,-3.0%
CCOC(=O)c1cc(C)sc1NC(=O)CN1CCN(C(=O)c2ccco2)CC1,.,-2.4%,2.7%,-5.4%
Brc1ccc(-c2nnc3sc(CN4CCc5ccccc5C4)cn23)cc1,.,49.4%,5.4%,.
Cc1cc(C)c2c(n1)SCC(=O)N2CC(=O)Nc1cccc(Cl)c1,.,-10.3%,3.5%,-9.7%
CCOC(=O)c1c(C)c2c(=O)[nH]cnc2n1-c1ccccc1,.,-14.1%,1.1%,-9.8%
CN(c1ccc(C(=O)N/N=C/c2cccc([N+](=O)[O-])c2)cc1)S(=O)(=O)c1ccccc1,.,-6.3%,5.1%,2.8%
c1ccc(-c2n[nH]c3c2CCC3)cc1,4.5,3.9%,-0.8%,-6.8%
CC(C)CN(C(=O)COC(=O)c1ccc2ccccc2n1)C1CCS(=O)(=O)C1 (centres undefined),8.4,5.8%,2.3%,3.7%
O=S(=O)(NCCNc1nccc(C(F)(F)F)n1)c1ccccc1,-0.7,0.2%,1.4%,5.9%
Cc1ccc(CCCNC(=O)C2CCC(=O)N(Cc3cccc(F)c3)C2)cc1 (centres undefined),.,-21.7%,0.3%,-4.1%
O=C(CCCn1c(=S)[nH]c2ccccc2c1=O)N1CCN(c2cccc(Cl)c2)CC1,3.3,1.2%,0.0%,-2.0%
COc1ccc(C(=O)C(=NNc2ccccc2)c2ccc(OC)cc2)cc1,.,-3.8%,6.7%,.
COc1ccc(S(=O)(=O)N2CCC(C(=O)NCc3ccco3)CC2)cc1,-3.9,1.1%,1.4%,-5.3%
CCN(CC)S(=O)(=O)c1ccc2oc(C(=O)N3CCOCC3)c(C)c2c1,0.0,5.0%,0.1%,-5.3%
COc1ccc(CNC(=O)CSc2nc3ccc(C)cc3[nH]2)cc1OC,.,46.3%,-2.6%,-1.3%
O=C(CN1CCOCC1)Nc1ccc(C2CCCCC2)cc1,-6.4,-2.0%,-0.6%,-42.2%
COc1ccc(OC)c(CCNC(=O)CCc2nnc3ccc(N4CCOCC4)nn23)c1,.,-16.3%,-0.5%,-1.2%
CN(C)c1ccnc(Nc2ccccc2)c1C#N,-2.2,-5.4%,-0.7%,-3.9%
c1ncn(C23CC4CC(CC(C4)C2)C3)n1,-1.1,20.0%,-4.4%,-9.0%
CN(C)CCn1c2c(c(SCC(=O)N3CCc4ccccc43)nc1=O)CCCC2,.,-0.1%,1.0%,.
CCOC(=O)C1CCN(C(=O)c2ccc3snnc3c2)CC1,-3.0,-2.9%,-4.3%,-9.8%

2 entries from above, with two lines to a compound:
Fields: GLA inh pH 4.5 | Rango dissoc inh | Rango-impB inh | miR-21 FLuc
> O=C(CCCn1c(=S)[nH]c2ccccc2c1=O)N1CCN(c2cccc(Cl)c2)CC1
→ 3.3 | 1.2% | 0.0% | -2.0%
> COc1ccc(C(=O)C(=NNc2ccccc2)c2ccc(OC)cc2)cc1
→ . | -3.8% | 6.7% | .

(list continues)
molecule,GLA inh pH 4.5,Rango dissoc inh,Rango-impB inh,miR-21 FLuc
CCOCCCNC(=S)N1CCN(c2nc(-c3ccccc3)cs2)CC1,.,-13.3%,0.5%,21.4%
CCN(Cc1ccccc1)C(=O)CCNS(=O)(=O)c1cc(Br)cnc1N,.,-8.7%,0.4%,4.9%
Cc1cc2c(cc1C)[n+](C)cn2CC(O)COCc1ccccc1 (centres undefined),3.9,29.8%,1.8%,-0.3%
CCOc1ccc(NC(=O)C2CCN(S(=O)(=O)c3ccc4c(c3)CC(C)N4C(C)=O)CC2)cc1 (centres undefined),.,-11.4%,-2.1%,-0.3%
Cc1ccccc1C(=O)NNS(=O)(=O)c1cccc([N+](=O)[O-])c1,.,-13.5%,-1.4%,1.0%
Nc1nonc1C(=O)NCCN=Cc1ccccc1O,3.4,19.1%,3.1%,1.1%
COc1ccnc2c1c(=O)n(Cc1cccc(F)c1)c(=O)n2C,.,1.3%,-0.2%,-6.2%
COc1ccc(OCCOCCN2CCOCC2)cc1,6.4,-3.1%,0.5%,-4.3%
COc1ccc(C(C)=O)cc1COC(=O)C1CC(=O)N(Cc2ccccc2)C1 (centres undefined),.,-6.8%,-1.1%,-14.4%
c1cncc(-c2nnc3n2C2(CCCCC2)Cc2ccccc2-3)c1,1.3,8.6%,-0.5%,-7.9%
Nc1nc(-c2ccccc2)c(CCCOc2ccc(NC(=O)CBr)cc2)c(=O)[nH]1,.,-9.4%,-0.8%,.
CN(CC(=O)Nc1ccc(Cl)c(C(F)(F)F)c1)C(=O)C1(c2ccccc2)CC1,.,?,-0.8%,.
CC1=CC=CC2=NC(=O)CC(C)(C(=O)N(CC(=O)NC3CCCC3)c3ccc(F)cc3)N12 (centres undefined),.,14.9%,-0.5%,-0.1%
CC(=O)c1c(C)[nH]c(C(=O)NCC2CCCCC2)c1C,.,10.3%,-4.2%,-44.5%
Clc1ccc2[nH]c3c(c2c1)CCc1cn[nH]c1-3,-0.5,-9.4%,0.2%,-6.7%
N#C/C(=C\c1ccc(-c2ccc(C(=O)O)cc2)o1)c1nc2ccccc2[nH]1,-15.5,?,?,-18.3%&-4.9%
Cn1cc(C(=O)Nc2ccc(Cl)cc2)c(C(F)(F)F)n1,-7.8,8.5%,-0.5%,1.9%
COc1ccc(S(N)(=O)=O)cc1C(=O)OCCCOC(=O)c1cc(S(N)(=O)=O)ccc1OC,.,0.8%,2.7%,18.4%
C=CCN(c1ccccc1)S(=O)(=O)c1ccc2c(c1)NC(=O)C(C)S2 (centres undefined),.,-10.2%,0.7%,3.8%
CCOc1ccccc1C(=O)NC(C(=O)Nc1cccnc1)C(C)C (centres undefined),-6.3,1.2%,-4.3%,-7.0%
CCOC(=O)C1=C(C)N=c2s/c(=C\c3ccncc3)c(=O)n2C1c1ccc2c(c1)OCO2 (centres undefined),-0.2,?,?,-8.0%
Cc1nnc(NC(=O)CSc2nc3[nH]ncc3c(=O)[nH]2)s1,14.3,16.9%,-6.4%,4.7%
Oc1ccc(O)c(Cc2nc3ccccc3[nH]2)c1,-4.8,0.4%,0.6%,0.0%
O=c1oc2ccccc2c(Nc2ccc(O)cc2)c1[N+](=O)[O-],5.6,5.6%,-2.4%,-15.5%
CCOc1cc(/C=N/NC(=O)c2cccnc2)ccc1OC(=O)c1ccco1,1.3[21.1 µM],-0.3%,-1.2%,7.4%
CCN(CC(=O)N1CCCC1)S(=O)(=O)c1ccc(Br)cc1,.,-4.2%,0.0%,-1.0%
CCOc1cc(/C=N/NC(N)=O)ccc1OC(=O)c1ccc(C)cc1,-2.6,.,.,-0.7%
CCOC(=O)c1[nH]c(=O)[nH]c1CSc1nc(C)cc(C)n1,1.0,-26.0%,2.9%,-3.0%
N#Cc1ccc(NC(=O)COC(=O)CCc2ccc(S(=O)(=O)N3CCCCC3)cc2)cc1,-0.7,0.3%,-3.1%,-7.2%
CCN1C[C@@H]2[C@@H]3C(=O)N(C)C(=O)[C@@H]3[C@](CC)(C1=O)N2C(=O)c1ccc(Cl)cc1,.,1.6%,-5.4%,.
COc1ccc(NC2CCCN(C(=O)CCC(=O)c3ccc(F)cc3)C2)cc1 (centres undefined),.,-2.0%,-0.6%,-22.0%
Cc1c(NS(=O)(=O)c2ccc(S(=O)(=O)c3ccccc3)s2)c(=O)n(-c2ccccc2)n1C,4.1,3.7%,4.6%,8.5%
Cc1ccc(S(=O)(=O)N/N=C\c2ccc(Cl)c([N+](=O)[O-])c2)cc1,-2.9,12.4%,0.0%,1.5%
O=C(COc1ccc(Cl)cc1)N(Cc1ccc(F)cc1)C1CCS(=O)(=O)C1 (centres undefined),.,-17.1%,0.4%,2.6%
CSc1ccc(S(=O)(=O)NCC(=O)OCC(=O)N(C)CC(=O)Nc2ccccc2Cl)cc1[N+](=O)[O-],.,-0.1%,-2.8%,.
O=C(NC(Cc1ccccc1)C(=O)NCCc1ccccn1)c1ccccc1 (centres undefined),.,-5.4%,0.4%,0.0%
O=C(Nc1ccc(S(=O)(=O)N2CCOCC2)cc1)c1cccc([N+](=O)[O-])c1,.,-2.4%,-2.1%,9.6%
O=C(/C=C/c1cn(-c2ccccc2)nc1-c1cccnc1)c1ccco1,-15.3,-0.5%,0.8%,?
CCOc1ccc(C(=O)NC(=S)Nc2ccc(NC(=O)C(C)C)cc2)cc1[N+](=O)[O-],2.6,11.7%,6.1%,-6.5%
OC(COc1ccc(Br)cc1)CN1CCC(Cc2ccccc2)CC1 (centres undefined),.,7.4%,-0.6%,0.3%
COc1ccc(OC)c(NS(=O)(=O)c2ccc(SC)cc2)c1,-22.7,-7.3%,-0.6%,22.9%
O=C(CN1CCN(c2ccccc2F)CC1)NC(=O)NC1CCCCC1,.,1.2%,0.0%,.
Cc1ccc(-c2csc(NC(=O)C[n+]3cc(-c4ccc(C)cc4)n4c3CCC4)n2)cc1,-0.1,-11.5%,6.1%,13.8%
O=C(O)c1cc(-c2ccccc2)n(-c2ccccc2C(=O)O)n1,-7.1,8.7%,-0.1%,1.2%
CC(C)(C)n1nnnc1CN1C2CCC1CC(NC(=O)Nc1ccccc1)C2 (centres undefined),2.8,-6.3%,-0.3%,2.7%
C#CCOCCOCCOCCNc1nc(N2CCN(C(=O)CCCCCCCCCCNC(=O)Cn3cc(CCCCCN)nn3)CC2)nc(N2CCN(C(=O)CCCCCCCCCCNC(=O)[C@@H](CCSC)n3cc(CCO)nn3)CC2)n1,.,-9.0%,2.1%,.
CCOC(=O)c1c(NC(=O)C2CCCO2)sc(C)c1C (centres undefined),3.9,16.1%,-2.2%,-5.0%
CCOc1ccc(S(=O)(=O)NCCC(=O)NCc2ccccn2)cc1,.,0.3%,?,.
CCCc1cc(Nc2ccc(C)cc2)n2ncnc2n1,.,-0.5%,2.9%,-8.6%
S=C(Nc1cccnc1)N1CCCCC1,2.5,4.4%,3.7%,0.4%
CC1(C)CC[C@]2(C(=O)O[C@@H]3O[C@H](CO)[C@@H](O)[C@H](O)[C@H]3O)CC[C@]3(C)C(=CCC4[C@@]5(C)CC[C@H](O[C@@H]6O[C@H](C(=O)O)[C@@H](O[C@H]7OC[C@@H](O)[C@@H](O)[C@@H]7O)[C@H](O)[C@H]6O)C(C)(C)C5CC[C@]43C)[C@@H]2C1 (some centres undefined),.,13.0%,0.2%,.
C/C(=N\Nc1nc2ccccc2[nH]1)c1ccc2c(c1)OCO2,1.2,16.6%,0.4%,-13.1%
